PABP FP inh: PABP-poly(A) binding inhibition; P11940; PABP-poly(A) RNA binding, fluorescence polarization; inhibition, % at 35 µM; actives 1% (n = 290,000); AID 2014;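 active = 50% or more with normal probe brightness, or confirmed in later tests; inconclusive = above 50% with abnormal brightness, or retests that disagree; inactive = below 50% or failed in later tests; about a fifth of its hits are not listed in these tables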;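 also: calls also rest on retests at 20 µM and on dose response follow-up; controls were probe without protein and protein plus probe with vehicle; some compounds called inactive have numbers as strong as hits; many hits fall short of the cut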
Target sequence (P11940 whole entry, looked up): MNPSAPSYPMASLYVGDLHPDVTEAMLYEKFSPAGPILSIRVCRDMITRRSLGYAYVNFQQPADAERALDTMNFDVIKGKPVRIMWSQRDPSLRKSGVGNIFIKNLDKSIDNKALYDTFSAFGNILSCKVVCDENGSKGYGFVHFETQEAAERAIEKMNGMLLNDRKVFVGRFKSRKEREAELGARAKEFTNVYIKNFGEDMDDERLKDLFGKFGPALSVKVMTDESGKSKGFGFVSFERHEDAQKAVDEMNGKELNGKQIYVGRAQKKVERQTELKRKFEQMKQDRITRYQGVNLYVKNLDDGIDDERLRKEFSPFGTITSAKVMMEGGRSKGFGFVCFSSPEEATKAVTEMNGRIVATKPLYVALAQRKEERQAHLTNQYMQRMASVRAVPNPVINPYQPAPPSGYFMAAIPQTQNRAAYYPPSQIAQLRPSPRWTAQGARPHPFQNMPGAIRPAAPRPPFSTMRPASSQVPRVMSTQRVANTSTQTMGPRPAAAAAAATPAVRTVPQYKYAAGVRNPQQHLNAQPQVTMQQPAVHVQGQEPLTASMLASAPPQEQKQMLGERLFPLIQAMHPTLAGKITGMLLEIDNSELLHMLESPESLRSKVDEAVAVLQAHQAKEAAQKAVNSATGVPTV
Rce1 inhib: inhibitors of yeast Ras-converting enzyme. Q03530. yeast membranes, quenched prenylated peptide cleavage fluorescence. calls only. actives 0.27% (n = 290,000);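 active = fall in fluorescence gain of 50% or more versus controls, with final raw signal at or below 3038400; inconclusive = same 50% fall but final raw signal above 3038400; inactive = fall in fluorescence gain under 50%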;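 also: plate controls were neutral control wells for no effect and wells lacking membranes for full effect; tested at 10 µM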
Target sequence (Q03530 whole entry, looked up): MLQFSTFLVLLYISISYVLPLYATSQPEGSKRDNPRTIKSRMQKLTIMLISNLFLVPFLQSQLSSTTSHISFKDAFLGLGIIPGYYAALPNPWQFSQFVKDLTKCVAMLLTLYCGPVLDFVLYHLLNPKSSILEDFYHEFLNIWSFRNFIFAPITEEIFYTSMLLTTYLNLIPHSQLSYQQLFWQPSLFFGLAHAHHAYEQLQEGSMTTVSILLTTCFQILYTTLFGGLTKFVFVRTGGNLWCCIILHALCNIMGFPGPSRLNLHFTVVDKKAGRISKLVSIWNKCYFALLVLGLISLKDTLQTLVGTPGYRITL
HIV Env fusion: blocks HIV Env-driven cell-cell fusion. actives 1.1% (n = 360,000). HeLa-JRFL Env/CEM21 cell fusion, luciferase. inhibition, % at 12.3 µM. AID 651610;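 active = mean replicate inhibition score of at least 50 and every replicate individually at or above 50; inconclusive = only one of the two criteria met; inactive = mean below 50 and not all replicates reaching 50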;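 also: 0% = plate neutral controls and 100% = maraviroc near 300 nM; one replicate is shown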
MT1-MMP act inh: inhibitors of human MT1-MMP activation. P50281. HT1080 RFP-PRO-GFP cells, GFP/RFP ratio fluorescence, overnight; percent of plate control window, DMSO zero. GFP/RFP ratio change, % at 20 µM. actives 0.061% (n = 360,000). AID 651647;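 active = GFP/RFP ratio change of at least 30% with cell ATP level not reduced by more than half and red fluorescence within 50% of control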; also: strong numbers were not always called active
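Test system: HT1080 cells expressing an RFP-PRO-GFP fluorescent reporter construct / Compound dosing: single-point 20 µM compound, 1% DMSO / Schedule: cells overnight before dosing, compound overnight, 37 °C, 5% CO2 / Evaluation: GFP/RFP fluorescence ratio / Control set: DMSO and RFP-L50D-GFP cell wells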
CSC inhib: blocks cancer stem cells. cancer stem cell-like cells viability, luminescence. inhibition, % at 7.5 µM. actives 1.1% (n = 300,000);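 active = mean at 75% or more and at least half the replicates too; inconclusive = mean and replicates disagree; tested in HMLE shEcad cells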;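 also: 0% = median of negative and 100% = median of positive control wells; the first replicate is given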
eIF4H FP inh: inhibitors of RNA binding by human eIF4H | eIF4H fluorescence polarization binding assay | AID 2012 | actives 0.94% (n = 290,000) | inhibition, % at 35 µM | Q15056;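 active = 50% or more with normal probe brightness, or confirmed in later tests; inconclusive = above 50% with abnormal brightness, or retests that disagree; inactive = below 50% or failed in later tests; about a fifth of its hits are not listed in these tables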;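 also: calls also rest on retests at 20 µM and on dose response follow-up; 0% = protein and probe with vehicle and 100% = probe without protein; strong numbers were not always called active; many hits fall short of the cut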
UUG fidelity: modulators of start codon recognition fidelity in yeast; S. cerevisiae UUG-firefly luciferase reporter, luminescence/redox ratio; activity score, % at 18.7 µM; actives 0.13% (n = 350,000);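 active = replicate mean at a twofold rise or more, about +100% in these data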;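 also: firefly luciferase made from a UUG start codon reports start codon fidelity; reporter light over untreated wells divided by growth signal over untreated wells; some hits fall short of that in this replicate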
eIF4H FP inh retest: further read-out of eIF4H FP inh, marked with its call; inhibition, %; compound at 20 µM; confirmation average;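 mean of two retest wells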
PABP FP inh retest: also measured in PABP FP inh; calls as there; inhibition, %; compound at 20 µM; confirmation repeats;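 mean of two retest wells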
MT1-MMP act inh RFP: second read-out of MT1-MMP act inh, no call of its own (marks repeat the call); RFP signal change, %; measured here: RFP expression control read;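 0 = vehicle wells; hits needed this value within 50% of zero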
Starred values were filed as active, the others as inactive; i = inactive; ? = inconclusive; nt = not tested or not shown; & = joins results of further samples. Some of the compounds tested; the hit share may differ from the screen's.

A first look:
SMILES	PABP FP inh	Rce1 inhib	HIV Env fusion	MT1-MMP act inh	MT1-MMP act inh RFP	CSC inhib	eIF4H FP inh	UUG fidelity	others
N#Cc1ccc(N2Cc3ccccc3C2=NC(=O)c2cccnc2Cl)cc1	4	i	-25	nt	nt	6	-11	-4
COc1ccc(CNCCC(c2ccc(OC(C)C)cc2)C(C)C)cc1OC (centres undefined)	3	i	77*	-2	-10	-4	-6	-3

The listing, repeating the preview:
SMILES	PABP FP inh	Rce1 inhib	HIV Env fusion	MT1-MMP act inh	MT1-MMP act inh RFP	CSC inhib	eIF4H FP inh	UUG fidelity	others
N#Cc1ccc(N2Cc3ccccc3C2=NC(=O)c2cccnc2Cl)cc1	4	i	-25	nt	nt	6	-11	-4
COc1ccc(CNCCC(c2ccc(OC(C)C)cc2)C(C)C)cc1OC (centres undefined)	3	i	77*	-2	-10	-4	-6	-3
O=C1CCCC2=C1C(c1cccs1)n1nc(SCc3ccccc3F)nc1N2 (centres undefined)	8	i	-27	-40	-29	-2	1	-6
CCCn1nc(C(=O)NNC(=O)c2cccc(S(=O)(=O)NC(C)C)c2)c2ccccc2c1=O	4	i	nt	1	2	-1	-6	1
CCS(=O)(=O)N1CCC(C(=O)NCCc2ccc(OC)c(OC)c2)CC1	-4	i	nt	3	6	-26	4	-6
OC(CCN1CCOCC1)(c1ccc(Cl)cc1)C1CCCCC1 (centres undefined)	-3	i	nt	-1	0	-10	-5	4
Cc1cc2c(cc(C(=O)OC(C(=O)NCc3ccco3)C(C)C)n2C)o1 (centres undefined)	-3	i	nt	nt	nt	-3	-1	-2
CN(Cc1ccccc1)C(=O)c1ccc2sc([C@H]3C[C@H](O)[C@@H](CO)O3)nc2c1	nt	nt	19	2	5	nt	nt	-10
O=S(=O)(c1ccc(S(=O)(=O)N2CCC3(CC2)OCCO3)cc1)N1CCCC1	-1	i	-29	-1	-4	-3	-1	-4
O=C(O)CCCC(=O)N1CCCC1	2	i	4	3	7	-7	-2	nt
CC(=O)N1CCN(c2ccccc2NC(=O)COc2ccc(Cl)cc2Cl)CC1	3	i	nt	-8	-13	8	-1	-6
Cc1ccc2c(CC(=O)OCc3cc(=O)n4c(n3)sc3ccccc34)coc2c1	25	i	nt	10	0	-16	70*	23	eIF4H FP inh retest=75*;PABP FP inh retest=46
CC(=O)N(C)C[C@H]1Oc2ncc(Br)cc2C(=O)N([C@H](C)CO)C[C@@H]1C	nt	nt	29	5	10	nt	nt	-6&-4
COC(=O)c1[nH]c2ccccc2c1NC(=O)CN1CCN(c2cccc(OC)c2)C(C)C1 (centres undefined)	-15	i	?	2	-6	12	5	13
Oc1ccccc1C1=Nc2ccccc2N=C(c2ccco2)C1	18	i	45	-3	-14	1	32	-9
C=CCn1c(SCCN2CCCC2)nc2c([nH]c3ccccc32)c1=O	-2	i	11	-8	-1	28	-5	nt
CCSc1nc(C)cc(Oc2ccc(=O)n(C)n2)n1	-4	i	-34	7	6	-21	-6	-4
CCn1c(SCC(=O)Nc2cc(C)ccc2C)nc2c(c1=O)SC(C)C2 (centres undefined)	-2	i	18	4	1	-11	-6	-15
Cc1ccc(NC(=O)C(=O)NCC2CCCO2)cc1C (centres undefined)	11	i	-17	-3	0	-8	-5	nt
CN(C)c1ccc(/C=N/NC(=O)c2cccc(C(=O)N/N=C/c3ccc(N(C)C)cc3)n2)cc1	-5	i	-3	5	7	12	-2	nt
COC(=O)c1sc2nc3c(cc2c1N)CCCC3	13	i	-117	3	-5	nt	-8	nt
O=C1COC(c2ccccc2O)=NN1CCCl	nt	nt	-62	5	2	nt	nt	-5
O=C(NC1=NCCS1)C1Cc2ccccc2CN1C(=O)c1ccccc1 (centres undefined)	7	i	nt	-5	-3	-7	4	-9
CN1CCC(N(C)C(=O)c2cc(=O)c3ccccc3o2)CC1	9	i	-5	-2	0	1	-15	nt
Cc1cc(NS(=O)(=O)c2ccc(NC(=S)NC(=O)c3ccc(Br)cc3)cc2)no1	-2	i	14	3	4	1	-9	-17
CCOc1ccc(NC(=O)CCNS(=O)(=O)c2ccc3c(c2)CCC(=O)N3)cc1	5	i	5	-8	1	-4	6	nt
CN(C)CC(=O)c1c[nH]c2ccccc12	0	i	-10	1	6	-3	11	0
CSc1ccccc1OCc1cc(C(=O)N(C)Cc2cnccn2)no1	4	i	-21	-1	5	-2	-8	5
CCc1ccc2c(F)cccc2n1	nt	nt	-8	1	6	nt	nt	2
O=C(N/N=C/c1cc(Cl)cc([N+](=O)[O-])c1O)NC12CC3CC(CC(C3)C1)C2	-8	i	-11	1	-18	82*	9	nt
O=c1cc(CN2CCN(Cc3ccccc3)CC2)c2ccc(O)cc2o1	2	i	15	-10	-1	-7	-5	-17
O=C(NCCO)N1c2ccccc2Sc2ccccc21	7	i	5	-1	-3	-12	-15	5
Cc1ccc(NC(=S)NCc2ccc3c(c2)cc(C)n3C)c(C)c1	2	i	1	33*	26*	-10	-3	nt
CCN(CC)C(=O)CSc1nc2cccnc2n1-c1ccccc1OC	-5	nt	nt	6	3	-16	4	-13
CCC(=O)Nc1ccc(NC(=O)CSc2nnc(-c3ccc(O)cc3)n2CC2CCCO2)cc1 (centres undefined)	6	i	7	-1	-1	-13	0	-8
Cc1ccc(N(CC(=O)NC2CCCC2)C(=O)CCC(=O)Nc2ccccn2)cc1C	12	nt	10	-3	-4	-10	-8	-15
CCC(=O)Nc1ccc(NC(=O)c2ccco2)cc1	-7	i	nt	1	3	12	-10	-22
C=CCn1c(=O)c2ccccc2n2c(SCC(=O)/C(C#N)=C(\C)N)nnc12	11	i	6&-9	1&4	0&3	-7	-8	-9
COc1ccc(S(=O)(=O)N2CCCCC2)cc1NC(=O)CCNC(=O)c1ccc(Br)cc1	nt	i	16	5	-1	-9	nt	-16
Cn1c(CCNC(=O)c2ccco2)nc2cc(NC(=O)C3CCCCC3)ccc21	-5	i	-5	3	2	-10	-8	-19
CCCN(CCC)Cc1c(C(=O)N/N=C/C(C)=C\c2ccco2)nnn1-c1nonc1N	3	i	14	-7	-7	8	-3	9
CC1CCc2c(nc3ncnn3c2N2CC(C)OC(C)C2)C1 (centres undefined)	-1	i	nt	-4	1	-11	-4	-10
CC1(C)CC(=O)C(C=Nc2ccccc2)=C(O)C1	6	i	nt	1	4	10	0	nt
CCCc1nnc(NC(=O)c2cc3ccccc3oc2=O)s1	6	i	nt	4	7	-17	-1	-9
Cc1ccc(S(=O)(=O)NC(=O)N(C)C2CCCCC2)cc1	5	i	-8	2	4	-6	7	-15
Cc1ccc(CSc2nnc(NC(=O)C3COc4ccccc4O3)s2)cc1 (centres undefined)	10	i	7	7	7	-2	0	-21
CCC(=O)Nc1nc(-c2ccccc2)nc(SC)c1C(C)=O	19	i	-4	-5	-5	5	32	nt
Cc1cnc(Sc2ncccc2[N+](=O)[O-])nc1	nt	i	-31	0	-2	18	nt	-18
Cc1ccc(N=Nc2c(N)nn(-c3ccccc3)c2N)cc1	-7	i	-51	4	-13	-2	9	nt
COc1ccc2nc(SCC(=O)NC3CCCC3)c(C)cc2c1	1	i	12	-9	-17	74	-8	-5
CS(=O)(=O)c1ccc2nc(NC(=O)CS(=O)(=O)Cc3ccccc3)sc2c1	-22	i	-1	-2	3	-14	-13	nt
O=C(CC1(C(F)(F)F)OCCO1)Nc1ccc2c(c1)OCO2	-7	i	-14	-1	4	-15	4	-6
CCOC(=O)C1=C(C)NC2=C(C(=O)CCC2)C1c1ccc(O)c(OCC)c1 (centres undefined)	-7	i	0	7	8	13	0	nt
Cc1ccc2nc(N/N=C/c3ccccc3C#N)nc(-c3ccccc3)c2c1	-13	i	nt	-10	-9	23	-3	-29
Cc1ccc(OCC(=O)N2CCC(Cc3ccccc3)CC2)c([N+](=O)[O-])n1	nt	nt	nt	0	-5	1	nt	-7
CCSc1nnc(Nc2ccccc2)s1	2	i	nt	-2	1	-5	-10	-7
COc1ccc2c(c1)C(SCC(=O)NCCc1ccccc1)CC(C)(C)O2 (centres undefined)	-1	i	18	-1	-1	-21	-2	3
COc1ccc2[nH]c(=O)c(CN(C)C(=O)c3cccs3)cc2c1	2	i	1	1	-1	-6	0	-15
Nc1ccc(Cl)cc1C(=O)OCC(=O)NC1CCS(=O)(=O)C1 (centres undefined)	9	i	-5	3	5	-8	-3	-28
CCOc1ccccc1CNc1ccc(N2CCOCC2)c(C(=O)O)c1	-3	i	nt	1	6	-5	1	-16
Further compounds
SMILES	PABP FP inh	Rce1 inhib	HIV Env fusion	MT1-MMP act inh	MT1-MMP act inh RFP	CSC inhib	eIF4H FP inh	UUG fidelity	others
CC1Oc2ccccc2N(CC(=O)N2CCCC2)C1=O (centres undefined)	0	i	8	0	3	43	31	-31
OCC1(Cc2ccccc2Cl)CCN(C/C=C/c2ccccc2)CC1	-7	i	15	0	2	29	6	-12
Cc1ccc(-c2cnc(NCc3cc4c(cc3[N+](=O)[O-])OCO4)n2C)cc1C	2	i	-5	0	5	50	-7	nt
COc1ccc(CNc2cc(C)cc(C)c2)cc1OC	5	i	nt	nt	nt	-10	1	nt
N=c1oc2ccccc2cc1C(=O)NCc1ccccc1	-5	i	-22	0	3	-4	-8	1
COc1ccc(/C=C2\SC(=N)N(c3ccc(F)cc3)C2=O)cc1OC	3	i	-16	-4	-9	-5	50	nt	eIF4H FP inh retest=5;PABP FP inh retest=43
N#CC1=C(N)Oc2cc(N)ccc2C1c1ccccc1F (centres undefined)	7	i	11	-38	-8	48	-4	-16
O=C(c1ccc(Cl)cc1)C1CCCN(C(=O)c2csnn2)C1 (centres undefined)	-5	i	-37	4	2	4	-6	nt
CCC(C)c1ccccc1NC(=O)C(C)OC(=O)c1ccco1 (centres undefined)	nt	i	-30	1	0	nt	nt	10
CCOc1ccccc1NC(=O)COC(=O)CN(C)S(=O)(=O)c1ccc(C)cc1	-3	i	-51	4	0	1	7	nt
COc1ccc(OCC(=O)NNC(=O)C2CCCO2)cc1 (centres undefined)	2	i	15	1	1	-4	-3	nt
COc1ccc(N2CCN(S(=O)(=O)c3cc(C)ccc3OC)CC2)cc1	-6	i	-10	-4	-2	4	-13	nt
Cc1cc(C)nc(N/N=C/C(Cl)=C/c2ccccc2)n1	-8	i	nt	-27	-20	-2	-1	nt
CCOc1cc(C(=O)Nc2cccnc2)cc(OCC)c1OCC	2	i	6	-1	-1	-7	-5	-7
COc1cc(NC(=O)c2ccc(Br)cc2)c(OC)cc1NC(=O)c1ccccc1	4	i	12	-2	3	11	-7	-6
Cc1cccc(OCCn2c(CCCO)nc3ccccc32)c1	2	i	-25	-2	1	-4	3	nt
Nc1nc2c(s1)CCc1ccccc1-2	12	i	-31	-3	-1	-6	-4	-2
CC(=O)Nc1nc2c(s1)CCc1ccccc1-2	-7	i	0	0	1	-6	-5	-20
CCc1cc(Cl)c(OC)c(C(=O)NC[C@@H]2CCCN2CC)c1O	nt	i	-12&-1	1&5	2&7	64	nt	-7&9
Cc1ccc(S(=O)(=O)N2CCC(C(=O)Nc3ccc(S(=O)(=O)N4CCCC4)cc3)CC2)cc1C	nt	i	1	-7	-6	6	nt	-15
O=C(COc1ccc2ccccc2c1Br)Nn1cnnc1	5	i	-41	4	1	-11	-9	-17
